CBX7 AlphaScr: CBX7 inhibition, primary AlphaScreen | O95931 | AlphaScreen His6-CBX7 / biotin-H3K27me3 peptide binding; stronger effect = lower value | normalised signal (fraction of DMSO) (concentration not given with the values) | actives 1.1% (n = 66,000) | AID 1224903; in the data active = normalised signal below about 0.5;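 note: 100 nL library stock added to about 20 µL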
Target sequence (O95931 whole entry, looked up): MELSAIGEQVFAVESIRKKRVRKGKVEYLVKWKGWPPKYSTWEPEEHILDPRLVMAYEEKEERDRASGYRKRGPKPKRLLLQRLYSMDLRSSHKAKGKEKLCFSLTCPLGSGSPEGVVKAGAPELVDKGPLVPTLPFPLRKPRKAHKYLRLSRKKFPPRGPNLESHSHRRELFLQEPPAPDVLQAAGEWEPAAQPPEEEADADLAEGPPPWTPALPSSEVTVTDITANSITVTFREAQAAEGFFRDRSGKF
CBX7 AlphaScr z-score: also measured in CBX7 AlphaScr; calls as there; z-score; measured here: z-score of CBX7 signal; some inactives read as strong as hits; reference of the scale not given here;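 same signal on another scale; lower means less binding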
Active calls of the source: *; & = joins results of further samples. This is a subset; rates above refer to the full screens.

SMILES | CBX7 AlphaScr | CBX7 AlphaScr z-score
Cn1nc(C(=O)NCC2CCCO2)c2ccccc2c1=O (configuration not stated) | 1 | 1.8
CCCCOc1ccc(C(=O)C(CN2CCN(c3ccc(F)cc3)CC2)c2ccccc2)cc1 (configuration not stated) | 0.67 | -3.4
CN(C)S(=O)(=O)c1ccc(C(=O)Nc2nc(-c3ccccc3)c(C(=O)c3ccccc3)s2)cc1 | 0.88 | -2
CC1CCC(NC(=O)C2c3ccccc3C(=O)N2Cc2ccccc2)CC1 (configuration not stated) | 0.98 | -0.37
CCOc1ccc(-n2ccnc2SCC(=O)Nc2ccc(F)cc2F)cc1 | 0.99 | -0.02
O=C(CSc1nnc(-c2cccnc2)n1-c1ccccc1)c1c[nH]c2ccccc12 | 1.1 | 1.8
CCn1cc(C(=O)OCc2cccc(Br)c2)c(=O)c2ccc(C)nc21 | 0.76 | -0.67
N=c1n(CCO)c2ccccc2n1CCOc1ccccc1 | 1 | 1
C=CCn1c(=O)c(C(=O)Nc2ccc(OC)cc2)c(O)c2ccccc21 | 1 | -0.021
COc1ccc2oc(=O)c(-c3nnc(-c4cccc(Cl)c4)o3)cc2c1 | 0.84 | -1.7
Cc1ccc(NC(=O)c2cc3ccccc3oc2=O)nc1 | 1.1 | 1.7
Cc1ccc(-c2nc(CS(=O)(=O)CC(=O)NCCCN(CC(C)C)CC(C)C)c(C)o2)cc1 | 1 | 0.0088
O=C(CC1(O)C(=O)N(Cc2ccccc2)c2ccccc21)c1cccnc1 (configuration not stated) | 0.94 | -0.57
CCCCNC(=O)c1nc(-c2ccc(OC)cc2)oc1C | 1 | -0.0022
CCOc1ccc(-c2cn(-c3ccc(C)c(F)c3)c(=O)[nH]2)cc1Cl | 0.98 | -0.59
O=C(Nc1nnc(-c2ccc(Cl)s2)o1)c1ccc(S(=O)(=O)N2CCOCC2)cc1 | 0.0063* | -11*
COc1ccc2nc(N3CCC(C(=O)NCCCOC(C)C)CC3)sc2c1 | 1 | 0.19
O=C(Cn1cnc2sc3c(c2c1=O)CCCC3)NCC(=O)N1CCN(c2ccccc2F)CC1 | 0.86 | -2
O=C(Nc1ccc2oc(-c3ccc(Cl)cc3)nc2c1)c1ccccc1F | 0.91 | -1.1
COc1ccc(-c2nc(CS(=O)(=O)CC(=O)NCc3ccc(Cl)cc3)c(C)o2)cc1 | 1.1 | 1.6
Cc1ccccc1C(=O)Nc1cccc(-c2nc3ncccc3o2)c1C | 1 | 0.3
COc1ccc(OC)c(NC(=O)C2CCN(S(=O)(=O)c3cccs3)CC2)c1 | 0.98 | -0.51
Cc1ccc(/C=C/c2nc3ccccc3n2S(=O)(=O)c2ccc3c(c2)OCCO3)cc1 | 1.3 | 7
Cc1nn(Cc2ccc(Cl)cc2Cl)c(C)c1NC(=O)c1ccccc1F | 1 | 0.78
COC(=O)c1ccc(C(=O)Nc2cc(OC)c3nc(NC(C)=O)sc3c2)cc1 | 1.1 | 1.5
CCc1ccc(-c2nc(CN3CCC(C(=O)NC4CCCC(C)C4C)CC3)c(C)o2)cc1 (configuration not stated) | 0.88 | -1.8
Clc1ccc(OCc2nc(-c3cccnc3)no2)c(Cl)c1 | 1.1 | 0.75
CC1CCN(c2nc3ccc(C(=O)NCCc4ccccc4)cc3s2)CC1 | 0.95 | -1.2
COc1cc2c(cc1OC)C(c1ccc(OCc3ccccc3)cc1)CC(=O)N2 (configuration not stated) | 0.88 | -0.98
Cc1nc(Nc2nc3ccccc3o2)[nH]c(=O)c1C | 1.1&1.1 | 1.8&4.5
CCc1ccc(OCC(=O)Nc2ccc(Cl)c(-c3nc4ncccc4o3)c2)cc1 | 0.97 | -0.5
COc1ccccc1CNC(=O)c1csc2c1CCCC2 | 1.1 | 2.1
COc1ccc(NC(=O)CSc2nnc(CNC(=O)COc3ccc(Cl)cc3)o2)cc1 | 0.9 | -1.5
Cn1cc(CCC(=O)NC2CCCCCCC2)c2ccccc21 | 0.71 | -3.1
Cc1cccc(-c2noc(CN(C(=O)C34CC5CC(CC(C5)C3)C4)C(C)C)n2)c1 | 0.94 | -0.59
Nc1ccc(Sc2nc3ccccc3s2)c(Cl)c1 | 0.83 | -2
CC(=O)N1CCC(N(CCN2CCOCC2)C(=O)Nc2ccc(Cl)cc2)CC1 | 0.97 | -0.48
CCc1cccc(C)c1Nc1c(-c2ccc(F)cc2)nc2ncccn12 | 1.2 | 0.75
O=C(C1CCC1)N1CCc2cc(S(=O)(=O)NCCCN3CCCCCC3)ccc21 | 1 | 1.3
CCc1nnc(NC(=O)CSc2nccn2-c2ccccc2)s1 | 1.1 | 1.5
COc1ccc(CN2C(=O)c3ccccc3C2C(=O)NC2CCCCCC2)c(OC)c1 (configuration not stated) | 0.9 | -0.37
CC1=Nc2cc(C(=O)N3CCOCC3)ccc2Sc2ccccc21 | 1.1 | 1.2
COC(=O)c1cccc(C(=O)Nc2ccc(F)cc2)n1 | 1.1 | 1.3
O=C(Nc1cccc2cccnc12)c1ccccc1O | 1 | 0.42
Cc1cc(NC(=O)C2(S(=O)(=O)c3ccc(Cl)cc3)CC2)ccc1Br | 1.1 | 3.9
O=C(CN1CCN(Cc2ccccc2F)C1=O)NC1CCCCCC1 | 1 | 0.49
CCOC(CCNC(=O)c1cn(C2CCCC2)c(=O)c2c1c1ccccc1n2C)OCC | 0.81 | -4.7
COc1ccc(C(=O)NCc2nnc(SCC(=O)Nc3nc4ccccc4s3)o2)cc1OC | 1 | -0.11
Cc1ccc(CNC(=O)c2c[nH]n3c(=O)c(Cc4cccc(Cl)c4)c(C)nc23)cc1 | 0.98 | -0.15
O=c1oc2ccc3ccccc3c2cc1-c1csc(Nc2ccc(Cl)cc2Cl)n1 | 1.1 | 1

3 compounds from above, arranged by SMILES length, descending.
SMILES | CBX7 AlphaScr | CBX7 AlphaScr z-score
Cc1ccc(CNC(=O)c2c[nH]n3c(=O)c(Cc4cccc(Cl)c4)c(C)nc23)cc1 | 0.98 | -0.15
CCOC(CCNC(=O)c1cn(C2CCCC2)c(=O)c2c1c1ccccc1n2C)OCC | 0.81 | -4.7
COc1ccc(CN2C(=O)c3ccccc3C2C(=O)NC2CCCCCC2)c(OC)c1 (configuration not stated) | 0.9 | -0.37

Next results follow:
SMILES | CBX7 AlphaScr | CBX7 AlphaScr z-score
Cc1ccc(-n2nc3c(c2NC(=O)c2cccc(F)c2)CSC3)c(C)c1 | 0.95 | -0.95
Cc1ccc(Cc2c(C)nc3nc(SCC(=O)Nc4cccc(C)c4C)nn3c2C)cc1 | 0.89 | -2.3
Cc1ccccc1Cn1nc(C)c(NC(=O)c2noc3c2CCCC3)c1C | 1 | 0.09
O=C(CC1Sc2ccccc2NC1=O)Nc1ccc(N2CCCC2)cc1 (configuration not stated) | 0.88 | -3.3
O=C1CC(c2ccccc2)CC2=C1C(c1ccncc1)Nc1ccccc1N2 (configuration not stated) | 0.95 | -1.2
Cc1ccc(S(=O)(=O)NCCC2(c3ccccc3)CCOC(C)(C)C2)cc1 (configuration not stated) | 1 | 0.31
CCOc1ccc(OCC)c(S(=O)(=O)NCCc2c(C)[nH]c3ccc(Br)cc23)c1 | 0.86 | -7.5
Cc1nc2c(C(=O)NC3CCCC3)cnn2c(C)c1Cc1ccccc1Cl | 0.9 | -2.8
COc1ccccc1NC(=O)C(=O)NCC1CCCO1 (configuration not stated) | 1 | 1.1
CC(C)Cc1nnc(NS(=O)(=O)c2ccccc2)s1 | 0.91 | -2.9
COc1ccc(-c2nc(C(=O)NCCc3ccc(C)cc3)c(C)o2)cc1OC | 0.92 | -1.4
COc1ccc(-n2cnc3cc(NC(=O)c4cccc(C)c4)ccc32)cc1 | 0.81 | -0.74
COc1ccc(OCC(=O)Nc2ccc3oc(-c4cccc(Cl)c4)nc3c2)cc1 | 0.96 | -1.3
Cc1ccc(NC(=O)Cc2c(Sc3ccccc3)c3ccccc3n2Cc2ccccc2)cc1 | 1.1 | 2.1
Cc1cc(N2CCN(C)CC2)nc2ccc(NC(=O)c3ccc(F)cc3)cc12 | 0.74 | -2.8
Cc1ccc(NC(=O)C2CCCN(c3nnc(-n4cccc4)s3)C2)cc1Cl (configuration not stated) | 1 | 0.35
CCCCOc1ccc(C(=O)N(Cc2ccc(CC)cc2)C2CCS(=O)(=O)C2)cc1 (configuration not stated) | 1 | 0.006
COCCCNC(=O)C1CCCN(Cc2nc(-c3ccc(Cl)cc3)oc2C)C1 (configuration not stated) | 1 | 0.19
Cc1sc2nc(Cc3ccccc3)nc(NC3CCCCC3)c2c1C | 1.1 | 2.1
O=C(NC1CCCCC1)c1ccc2c(=O)n3c(nc2c1)CCCCC3 | 1 | 0.84
COc1ccc(-c2noc(COc3ccc(C)cc3Br)n2)cc1OC | 1.3 | 0.32
O=C(CCn1c(=O)[nH]c2ccccc2c1=O)NCCc1ccccc1Cl | 1.1 | 0.4
CC1CCCCN1C(=O)c1ccc2c(c1)N(Cc1ccccc1F)C(=O)c1ccccc1S2(=O)=O (configuration not stated) | 0.96 | -1.1
CCc1ccc(-c2nc(CN3CCC(C(=O)N4CCN(c5ccccc5)CC4)CC3)c(C)o2)cc1 | 0.85 | -2.3
COc1cccc(C2=NOC(C(=O)N3CCN(Cc4ccccc4)CC3)C2)c1OC (configuration not stated) | 1 | 0.52
Cc1ccc(NC(=O)CSc2nccn2-c2ccc(F)cc2)cc1Cl | 0.82 | -0.63
Cc1ccc(S(=O)(=O)NCc2c(-c3ccccc3)c3cc(Cl)ccc3[nH]c2=O)cc1 | 1 | 0.98
COc1ccc(OCCCCn2c(-c3ccc(Cl)cc3)nc3ccccc3c2=O)cc1 | 1.2 | 3
CC(C)CCN(C(=O)Nc1ccc(Cl)cc1)C1CCN(C(C)C)CC1 | 1 | 1.7
O=C(O)C(Cc1ccc(Cl)cc1)Sc1nc2ccccc2[nH]1 (configuration not stated) | 1.1 | 1.5
COc1ccc(-n2c(-c3ccccc3F)nc3c(cnn3-c3ccc(C)cc3)c2=O)cc1 | 0.62 | -4.8
Cc1cccc(N2CCN(C(=O)Cc3cn(C)c4ccccc34)CC2)c1C | 0.74 | -9
CCOC(=O)c1cc(-c2nnc(-c3ccc(C)cc3)o2)c(C)nc1C | 0.98 | -0.22
CCCCN(CC)CCNC(=O)c1cc2c(-c3ccc(Cl)cc3)nn(C)c2s1 | 1.1 | 0.4
COc1ccc(C(=O)Nc2c3c(nc4c2CCC4)CCCC3)cc1OC | 0.97 | -0.4
CCCCNC(=O)Cn1cnc2scc(-c3ccccc3)c2c1=O | 0.94 | -1.6
Cc1cc(C)cc(C(=O)NCCc2cc3c(C)ccc(C)c3[nH]c2=O)c1 | 1.1 | 0.14
CCOc1ccc2nc(Nc3ncc4c(n3)CCCC4=O)nc(C)c2c1 | 0.99 | -0.26
Cc1ccnc(NC(=O)CCc2nc(-c3ccccc3F)no2)c1 | 0.86 | -2.2
CC(C)OC(=O)Nc1ccc2c(c1)N(C(=O)CCN1CCOCC1)c1ccccc1CC2 | 0.96 | -0.6
COc1ccc(-c2nc(NC(=O)CCC(=O)c3ccccc3)sc2C)cc1 | 1.1 | 0.28
Cc1ccc(OCC(=O)Nc2ccc(-c3nc4cc(C(C)C)ccc4o3)cc2)cc1 | 1 | 0.15
Clc1ccc(N2CCN(c3nc4cccnc4s3)CC2)cc1 | 0.99 | -0.28
O=C(Nc1cccc(Cl)c1)c1cc2c(s1)-c1ccccc1OC2 | 0.99 | -0.22
COc1ccc(C2OCC3(COC(C)=O)C(C)C=C(C)C2C3C)cc1 (configuration not stated) | 1.2 | 0.3
Cc1onc(-c2ccccc2Cl)c1C(=O)Nc1ccc(O)c(C(=O)O)c1 | 1.3 | 1.8
CCC1Sc2ccccc2N(CC(=O)NCc2ccccn2)C1=O (configuration not stated) | 0.99 | -0.69
Cc1ccc(CCN2CC(C(=O)NCCc3ccccc3)CC2=O)cc1 (configuration not stated) | 1.1 | 1
CCc1ccc(C2CC(c3cc(OC)c(OC)c(OC)c3)n3ncnc3N2)cc1 (configuration not stated) | 0.96 | -1.4
COc1ccc(N2Cc3cccc(C(=O)Nc4cc(OC)cc(OC)c4)c3C2=O)cc1 | 0.96 | -0.9

Shown with each value named: entries from further up
Cc1ccc(OCC(=O)Nc2ccc(-c3nc4cc(C(C)C)ccc4o3)cc2)cc1
- CBX7 AlphaScr = 1
- CBX7 AlphaScr z-score = 0.15

Clc1ccc(N2CCN(c3nc4cccnc4s3)CC2)cc1
- CBX7 AlphaScr = 0.99
- CBX7 AlphaScr z-score = -0.28

O=C(Nc1cccc(Cl)c1)c1cc2c(s1)-c1ccccc1OC2
- CBX7 AlphaScr = 0.99
- CBX7 AlphaScr z-score = -0.22

COc1ccc(C2OCC3(COC(C)=O)C(C)C=C(C)C2C3C)cc1 (configuration not stated)
- CBX7 AlphaScr = 1.2
- CBX7 AlphaScr z-score = 0.3

Carrying on.
SMILES | CBX7 AlphaScr | CBX7 AlphaScr z-score
COCCn1cc(C(=O)N2CCC(C(N)=O)CC2)c2c3ccccc3n(C)c2c1=O | 0.97 | -1
O=C(NCc1ccccc1)c1cccc2c1C(=O)N(C1CCCCC1)C2 | 1.1 | 1.5
O=C(Cc1ccc(F)cc1)Nc1c2c(nn1-c1ccc(F)cc1)CSC2 | 0.99 | -0.15
CCOC(=O)c1nc(Nc2ccccc2F)c2ccccc2n1 | 1.1 | 1
Cc1ccc(-n2nc(-c3ccc(Cl)cc3)cc2-c2ccc(Cl)cc2)c(C)c1 | 0.98 | -0.33
O=C(c1ccc2c(c1)N(Cc1ccc(F)cc1Cl)C(=O)CS2)N1CCOCC1 | 1 | 1.6
COc1cccc(-c2nc(CS(=O)(=O)CC(=O)Nc3c(C)cccc3C)c(C)o2)c1 | 1.1 | 1.9
O=C(Nc1cccc(F)c1)C1CCN(S(=O)(=O)c2cccc3cccnc23)CC1 | 0.93 | -0.85

Screens (PubChem BioAssay)
